gsp agonist: activates gsp, the McCune-Albright syndrome mutation | gsp mutant cells, cAMP HTRF, 30 min; control for the full effect not named in the record | Potency, µM (series often up to 76.9 µM), without a hit: at the highest dose activation (cAMP increase), most hits filed as activators | 340,000 tested, 0.13% active; active = well fitted activation curve with a large enough effect; inconclusive = small, poorly fitted or top-dose-only effect, or another doubt; inactive = no such curve, though single readings can be large or run the other way; cell line not stated here;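 note: phosphodiesterase inhibitor Ro 20-1724 added with compounds to block cAMP breakdown; potency is the fitted concentration of half-maximal effect; nearly all actives have a fitted effect of over 60% in size; about a fifth of the inactives were tested at one dose only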
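Cells stably selected in G418 were plated at 2000/well, grown 16-24 hr, then given compounds in DMSO with the PDE inhibitor […] (300 uM solution added) for 30 min at 37C; cAMP was read by HTRF.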
ClpP mod: qHTS Assay for Activators of ClpP | AID 651965, 2013 | 340,000 tested, 1.9% active | purified B. subtilis ClpP, FRET peptide cleavage, 20 min | Potency, µM (highest dose often 57.5 µM), for inactives: top-dose activity change, negative = active | ATP-dependent Clp protease proteolytic subunit (Bacillus subtilis (strain 168)), P80244; active = well fitted falling curve with a large enough effect; inconclusive = small, poorly fitted or top-dose-only effect; inactive = no such curve, though single readings can be large or run the other way; note: potency is the fitted concentration of half-maximal effect; the source files actives as falling curves though it sought activators and does not explain the sign; nearly all actives have a fitted effect of over 65% in size; many hits overshoot -100%
Target sequence (P80244 whole entry, looked up): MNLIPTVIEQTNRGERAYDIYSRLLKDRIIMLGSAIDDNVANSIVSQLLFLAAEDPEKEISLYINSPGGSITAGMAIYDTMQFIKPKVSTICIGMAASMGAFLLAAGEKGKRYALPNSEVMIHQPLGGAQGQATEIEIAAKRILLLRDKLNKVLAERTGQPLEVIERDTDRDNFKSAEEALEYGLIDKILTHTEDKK
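FRET quenching reversal measured ClpP activation: 10 microg/mL B. subtilis ClpP at pH 8 with the FRET-FV decapeptide, read at 430 nm after 320 nm excitation. The 20-min minus 0-min signal was scaled between DMSO/no-enzyme wells and ADEP (5.8 microM final).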
Sfp inh: Sfp phosphopantetheinyl transferase inhibition; Q9F4F7; Potency, µM, for inactives: max response, negative = inhibition, usual class: inhibitors; 310,000 tested, 3.5% active; Biochemical Sfp PPTase activity, qHTS; AID 1490; active = well fitted inhibition curve with a large enough effect; inconclusive = small, poorly fitted or top-dose-only effect, or another doubt; inactive = no such curve, though single readings can be large or run the other way;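 note: the enzyme is Sfp with the accession as filed and its product quenches rhodamine fluorescence; potency is the fitted concentration of half-maximal effect; 0% = enzyme reaction without inhibitor and -100% = no enzyme wells; top concentration of the series not given in the record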
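Step 1, compound plus 15 nM Sfp-PPTase, 15 min, room temperature. Step 2, add rhodamine-CoA (5 uM) and BHQ-2-YbbR (12.5 uM). Step 3, read 525/598 nm fluorescence at 0 and 30 min.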
D2 agonist: agonists of human D2 dopamine receptor (beta-arrestin). P14416. DiscoveRx PathHunter D2 beta-arrestin, luminescence, 90 min; 100% = 57 uM dopamine signal. activation, % (concentration not given with the values). 360,000 tested, 0.084% active; in the data active = activation above about 40%; inconclusive = about 15% to 40%; inactive = below about 15%; note: compound concentration not given in the record; the text of the record calls up to 30% inactive
Target sequence (P14416 whole entry, looked up): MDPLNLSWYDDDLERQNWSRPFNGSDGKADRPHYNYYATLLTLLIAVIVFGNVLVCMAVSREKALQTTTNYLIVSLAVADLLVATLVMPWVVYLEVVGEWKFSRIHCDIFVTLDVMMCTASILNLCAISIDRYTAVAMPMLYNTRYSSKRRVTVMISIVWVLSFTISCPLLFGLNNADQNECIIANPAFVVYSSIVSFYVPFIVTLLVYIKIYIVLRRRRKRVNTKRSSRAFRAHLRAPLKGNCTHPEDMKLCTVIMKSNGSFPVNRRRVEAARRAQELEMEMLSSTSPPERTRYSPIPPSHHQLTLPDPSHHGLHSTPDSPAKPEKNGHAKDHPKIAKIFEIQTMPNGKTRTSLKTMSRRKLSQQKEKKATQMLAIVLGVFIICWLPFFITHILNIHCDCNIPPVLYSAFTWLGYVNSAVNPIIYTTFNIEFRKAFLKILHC
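DiscoveRx PathHunter D2 beta-arrestin cells (2,100/well) attached overnight, then compound-stimulated 90 min at 37 C in HBSS/10 mM HEPES/0.1% Tween-20 buffer; beta-galactosidase complementation read by luminescence after 1 h at ambient temperature. Dopamine 57 uM final (EC100) as control.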
Menin MLL FP FL: displaces fluorescein MLL peptide from human menin; Fluorescence polarization, fluorescein-MLL peptide displacement from menin; FP activity change, % at 61.4 µM; 290,000 tested, under 10 active; inconclusive = falling polarisation curve, or a change in total fluorescence; inactive = total fluorescence flat and polarisation flat or rising; no compound was filed as active; the % refers to the polarisation; negative = inhibition;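 note: % of control where 0% means no effect; inhibitors lower the polarisation; unlabelled MLL peptide was the positive control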
PINK1 modulator: changes PINK1 expression; PINK1 immunofluorescence, high-content cytometry, 24 h; Potency, µM (highest dose often 76.6 µM), for the others: at the top dose activation (PINK1 increase), actives largely listed as activators; 410,000 tested, 0.2% active; AID 624263; active = well fitted activation curve with a large enough effect; inconclusive = small, poorly fitted or top-dose-only effect; inactive = flat fitted curve, though single readings scatter; cell line not stated here;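 note: potency is the fitted concentration of half-maximal effect; % of control where 0% means no effect; nearly all actives have a fitted effect of over 65% in size; a mitochondrial uncoupler was the plate control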
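Measures PINK1 amount and localization on or inside mitochondria by immunofluorescence. Stable cells get compounds at 5 concentrations for 24 hours before fixation and staining; CCCP controls included.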
gsp antag: gsp mutant antagonism; AID 624288; Potency, µM (highest dose often 76.9 µM), for the others: at the top dose activity change, negative = inhibition, usual class: inhibitors; 340,000 tested, 0.4% active; gsp-mutant cells, cAMP HTRF, 30 min; control for the full effect not named in the record; active = falling curve of any shape with a large fitted effect; inconclusive = falling curve, mostly with a smaller effect; inactive = flat or rising curve; cell line not stated here;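 note: intracellular cAMP measured with PDE inhibitor Ro 20-1724 present during compound exposure; potency is the fitted concentration of half-maximal effect; % is set by controls: 0 for no effect and ±100 for the full control effect; nearly all actives have a fitted effect of over 65% in size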
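G418-selected cells were plated in DMEM/10% FBS for 16-24 h at 37C, then treated with compounds plus the PDE inhibitor […] (300 uM solution added) for 30 min at 37C. Intracellular cAMP was measured by HTRF after 30 min lysis at room temperature.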
* hit, by the source's call; & = joins results of further samples; [ ] = another dose, or the depositor's remark. Outcome played no part in choosing rows, and some 5.1% of all compounds hit somewhere here.

`Cn1cc(C(=O)c2cccc(Cl)c2)cc1/C=N\O` gave gsp agonist -19%[15.4 µM], Sfp inh 17%, D2 agonist -5.8, Menin MLL FP FL -0.8, PINK1 modulator -0.9% and gsp antag -13%.
For Cc1ccc(C(=O)Nc2cccc([N+](=O)[O-])c2)cc1S(=O)(=O)Nc1ccc(NC(=O)c2ccccc2)cc1 the results were gsp agonist 0%, ClpP mod 0.8%, Sfp inh 11%, D2 agonist -0.6, Menin MLL FP FL 2.7, PINK1 modulator 0.4% and gsp antag -2%.
Cc1cccc(C(=O)Nc2ccc(S(=O)(=O)N3CCOCC3)cc2C)c1 was read as gsp agonist 3%[15.4 µM], ClpP mod 1.5%, Sfp inh 1%, D2 agonist -0.9, Menin MLL FP FL -0.9, PINK1 modulator 2.6% and gsp antag 11%.
`CN(C)S(=O)(=O)c1cccc(C(=O)NCC(C)(C)CNC(=O)c2cccc(S(=O)(=O)N(C)C)c2)c1` gave gsp agonist -6%[15.4 µM], Sfp inh 5%, D2 agonist 1.4, Menin MLL FP FL inconclusive, PINK1 modulator 4.3% and gsp antag -9%.
For C=C1[C@@H](OC(C)=O)CC[C@]2(C)[C@@H]1C[C@@H]1C[C@H](OC(C)=O)C(C)=C([C@@H](OC(C)=O)[C@@H]2OC(C)=O)C1(C)C the results were gsp agonist 5%, ClpP mod -0.8%, Sfp inh -13%, D2 agonist -3.8, Menin MLL FP FL -1.7, PINK1 modulator 0.8% and gsp antag -13%.
For COc1ccccc1C1=CC(=O)CC(C)(C)C1=O the results were gsp agonist -21%, ClpP mod 1.6%, D2 agonist -6.5, PINK1 modulator 0.1% and gsp antag 11%.
For O=C(NCC1CCCO1)C(=O)N/N=C/c1ccccc1C(=O)O (stereo unspecified) the results were gsp agonist 6%[15.4 µM], Sfp inh 4%, D2 agonist 0.1, Menin MLL FP FL 0.0, PINK1 modulator -0.8% and gsp antag 12%.
Screening CCOC(=O)c1c(C)[nH]c(C(=O)N2CCc3cc(OC)c(OC)cc3C2)c1C returned gsp agonist 5%, ClpP mod -5.3%, D2 agonist 5.8, PINK1 modulator 0.7% and gsp antag 2%.
Screening COC(=O)C1=C(C)N(C)C(=O)NC1c1ccccc1 (stereo unspecified) returned gsp agonist 13%, ClpP mod -1.1%, Sfp inh 14%, D2 agonist -1.3, Menin MLL FP FL 4.7, PINK1 modulator -1.1% and gsp antag 7%.
`CCN(CCn1cccn1)Cc1cn[nH]c1-c1ccc(OC)cc1F` gave gsp agonist 24%, Sfp inh 0%, D2 agonist 2.0, Menin MLL FP FL 0.2, PINK1 modulator 1.8% and gsp antag 9%.
CCn1c(CNC(=O)COc2c(C)cccc2C)nnc1SCC(=O)Nc1nccs1 was read as gsp agonist 3%, ClpP mod 1.6%, Sfp inh 17%, D2 agonist -0.7, Menin MLL FP FL 2.2, PINK1 modulator 5.0%[38.3 µM] and gsp antag -2%.
Screening Cc1ccc(S(=O)(=O)NC(=O)NCc2ccc(F)cc2)cc1 returned gsp agonist -11%[15.4 µM], Sfp inh 24%, D2 agonist 6.6, Menin MLL FP FL 0.7, PINK1 modulator 1.2% and gsp antag 15%.
For COc1cccc2c1OC1(C)CC2NC(=O)N1c1cccc(C(=O)Nc2ccc3c(c2)OCCO3)c1 (stereo unspecified) the results were gsp agonist 4%, ClpP mod 0.7%, Sfp inh 4%, D2 agonist -3.3, Menin MLL FP FL 3.6, PINK1 modulator -0.5% and gsp antag -12%.
For COc1cccc(-c2sc3ccc(OC)cc3c2-c2ccc(OC)cc2F)c1 the results were gsp agonist 12%, ClpP mod -19%, D2 agonist -4.8, PINK1 modulator 1.5% and gsp antag -4%.
`CCOC(=O)c1oc2cc(OCC(=O)OC)ccc2c(=O)c1-c1ccc(OC)c(OC)c1` gave gsp agonist 38%, ClpP mod -0.4%, Sfp inh -1%, D2 agonist 0.9, Menin MLL FP FL -3.0, PINK1 modulator -0.4% and gsp antag inconclusive.
Screening CC(C)COP(=O)(OCC(C)C)C(O)c1ccc(F)cc1 (stereo unspecified) returned gsp agonist 12%, ClpP mod 3.2%, Sfp inh 17%, D2 agonist -2.8, Menin MLL FP FL 9.4, PINK1 modulator 1.6% and gsp antag 17%.
CCOc1ccc(NS(=O)(=O)c2ccc(C(=O)N(CC)CC(=O)NCc3cccs3)cc2)cc1 was read as gsp agonist 0%, ClpP mod -1.6%, Sfp inh 6%, D2 agonist -2.9, Menin MLL FP FL 0.7, PINK1 modulator -0.4% and gsp antag -8%.
CCCCNc1ncnc2c1cnn2-c1ccccc1 was read as gsp agonist -17%, ClpP mod -10%, Sfp inh 0%, D2 agonist -0.6, Menin MLL FP FL 6.2, PINK1 modulator 3.7% and gsp antag 7%.
COc1cc(C(=O)NCC(=O)NC(C)CCc2ccccc2)cc(OC)c1OC (stereo unspecified) was read as gsp agonist -43%[inhibitor], ClpP mod -2.8%, Sfp inh 10%, D2 agonist -3.0, PINK1 modulator 0.3% and gsp antag -2%.
S=c1[nH]nc(-c2ccc(Cl)cc2)n1/N=C/c1ccco1 was read as gsp agonist -11%, ClpP mod 0.6%, Sfp inh -9%, D2 agonist -3.4, Menin MLL FP FL -2.3, PINK1 modulator -0.9% and gsp antag -16%.
Screening COCCOC1CCN(C(=O)C2CCC(=O)N(CCc3ccccc3)C2)CC1 (stereo unspecified) returned gsp agonist -1%[15.4 µM], ClpP mod 1.9%, Sfp inh 1%, D2 agonist -1.1, PINK1 modulator -1.1% and gsp antag 7%.
Screening O=C(Nc1csc([N+](=O)[O-])c1)Nc1ccccc1Cl returned gsp agonist 4%[15.4 µM], Sfp inh 2%, D2 agonist 7.6, Menin MLL FP FL 4.4, PINK1 modulator inconclusive and gsp antag -33%.
N#Cc1ccccc1S(=O)c1ccccc1C(=O)Nc1ccccc1 (stereo unspecified) was read as gsp agonist -22%[15.4 µM], Sfp inh 23%, D2 agonist -1.5, Menin MLL FP FL -4.4, PINK1 modulator 0.6% and gsp antag -1%.
Screening COc1ccc(OCCOC(=O)c2[nH]c(C)c(C(C)=O)c2C)cc1 returned gsp agonist -16%, Sfp inh 5%, D2 agonist 3.7, Menin MLL FP FL 2.4, PINK1 modulator 7.7% and gsp antag -14%.
Cc1ccc(C(=O)/C=C/c2ccccc2[N+](=O)[O-])cc1 was read as gsp agonist -8%[15.4 µM], Sfp inh -16%, D2 agonist -2.4, Menin MLL FP FL -1.3, PINK1 modulator -2.1% and gsp antag 1%.
For O=C(Nc1ccc(-c2nc3ccccc3[nH]2)cc1)c1ccc2c(c1)OCO2 the results were gsp agonist -51%[inhibitor], ClpP mod inconclusive, Sfp inh -24%, D2 agonist 1.7, Menin MLL FP FL 5.9, PINK1 modulator 5.4%[38.3 µM] and gsp antag 2%.
For CC(CCc1ccccc1)NC(=O)c1ccc(NC(=O)c2ccccc2)cc1 (stereo unspecified) the results were gsp agonist -3%, Sfp inh 20%, D2 agonist 7.0, Menin MLL FP FL 0.4, PINK1 modulator 15% and gsp antag 12%.
O=C(Nc1ccc(CN2CCOCC2)cc1)c1ccc(-c2cccc([N+](=O)[O-])c2)o1 was read as gsp agonist 25%, ClpP mod -1.2%, Sfp inh 0%, D2 agonist 2.7, PINK1 modulator -0.5% and gsp antag inconclusive.
CC(=O)NC(CCS(C)(=O)=O)C(=O)Nc1cc(C)on1 (stereo unspecified) was read as gsp agonist -48%[inhibitor], ClpP mod 0.7%, Sfp inh 14%, D2 agonist -4.4, Menin MLL FP FL 1.0, PINK1 modulator 0.9% and gsp antag 4%.
Screening CCOc1ccc(C(=O)Nc2c3c(nn2-c2cccc(C)c2C)CS(=O)C3)cc1 (stereo unspecified) returned gsp agonist inconclusive, ClpP mod 1.4%, Sfp inh 15%, D2 agonist -1.7, Menin MLL FP FL -0.1, PINK1 modulator 0.3% and gsp antag -2%.
For CC1(C(=O)NS(=O)(=O)c2cccc(Cl)c2)CCN1C(=O)C/C=C/c1ccccc1 (stereo unspecified) the results were ClpP mod -7.5%, D2 agonist -0.9 and PINK1 modulator 0.3%.
`COc1ccc(OCc2cc(-c3ccc(Cl)cc3)no2)cc1` gave gsp agonist inconclusive, Sfp inh 18%, D2 agonist 0.3, Menin MLL FP FL -1.6, PINK1 modulator 2.2% and gsp antag -3%.
For CC(C)n1c(N2CCN(C(=O)c3cccs3)CC2)nc2ccccc21 the results were gsp agonist -38%, ClpP mod 1.1%, Sfp inh 10%, D2 agonist -1.7, Menin MLL FP FL 0.9, PINK1 modulator 2.2% and gsp antag -23%.
O=C(CNc1n[nH]c(=O)[nH]c1=O)N/N=C/C1CC=CCC1 (stereo unspecified) was read as gsp agonist 16%[15.4 µM], Sfp inh 16%, D2 agonist -1.5, Menin MLL FP FL 1.7, PINK1 modulator -1.1% and gsp antag 11%.
For Cc1cc(C)c(C)c(OCCCN(C)C)c1 the results were gsp agonist -2%, ClpP mod -1.1%, Sfp inh -10%, D2 agonist -1.1, Menin MLL FP FL 7.0, PINK1 modulator 1.3% and gsp antag 13%.
`O=C(COC(=O)c1cc(S(=O)(=O)N2CCCC2)ccc1O)NCc1ccccc1` gave gsp agonist -3%, ClpP mod inconclusive, D2 agonist -5.1, PINK1 modulator 4.5% and gsp antag -4%.
`CCN(CC)CCCNC(=O)CSc1c2c(nc3cc(Cl)ccc13)CCCC2` gave gsp agonist 10%[15.4 µM], ClpP mod 0.4%, Sfp inh 5%, D2 agonist -3.1, Menin MLL FP FL 0.9, PINK1 modulator 4.6%&-1.5% and gsp antag 13%.

Source: PubChem (National Center for Advancing Translational Sciences (NCATS))
